Bioassay records as filed in PubChem.
Arbovirus anti: arbovirus infection inhibition | 200,000 compounds, 0.37% hits | inhibition, % at 10 µM | arbovirus infection cell-based antiviral screen;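 active = inhibition from about 30%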;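 note: bluetongue infection of BSR cells; cell survival read as ATP light after 72 h; 0% = infected wells without compound and 100% = uninfected wells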
Mtb bLac sens: beta-lactam sensitization of Mtb H37Rv; AID 434955; inhibition, % at 25 µM; M. tuberculosis H37Rv growth with meropenem, percent inhibition; hits of this screen are not shown here; 330,000 compounds, 0.27% hits;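 active = about 74% or more and at least 40 points above the plate without the antibiotic, then above 30% in a dose series; inconclusive = first-round hits that could not be retested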;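 note: growth measured after seven days incubation then overnight dye step; 0% = bacteria only wells and 100% = bacteria with antibiotic; twin plates without the antibiotic show which effects depend on it; some results filed as inactive read as strong as hits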
Mtb growth: M. tuberculosis H37Rv growth inhibitors, H37Rv strain (AID 1626); M. tuberculosis H37Rv growth inhibition; higher % means a stronger effect; inhibition, % at 10 µM; hits with a dose series show IC50 in µM; 220,000 compounds, 0.95% hits;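 active = confirmed in a dose series; inconclusive = inhibition above 80% but not taken into the dose series; inactive = below 80% or under 30% at every dose of the series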;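 note: bacteria incubated seven days before Alamar blue readout; 0% = bacteria only wells and 100% = bacteria with antibiotic wells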
RecA intein inh: blocks M. tuberculosis RecA intein splicing; P9WHJ3; cell-free RecA intein splicing, fluorescence; inhibition, %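 (about 9 µM by stock and volumes)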; 290,000 compounds, 0.75% hits; AID 2221; in the data active = inhibition above about 30%; inconclusive = no clear call, values can overlap the other calls;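 note: 0% = vehicle wells and 100% = reference inhibitor control wells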
Target sequence (P9WHJ3 whole entry, looked up): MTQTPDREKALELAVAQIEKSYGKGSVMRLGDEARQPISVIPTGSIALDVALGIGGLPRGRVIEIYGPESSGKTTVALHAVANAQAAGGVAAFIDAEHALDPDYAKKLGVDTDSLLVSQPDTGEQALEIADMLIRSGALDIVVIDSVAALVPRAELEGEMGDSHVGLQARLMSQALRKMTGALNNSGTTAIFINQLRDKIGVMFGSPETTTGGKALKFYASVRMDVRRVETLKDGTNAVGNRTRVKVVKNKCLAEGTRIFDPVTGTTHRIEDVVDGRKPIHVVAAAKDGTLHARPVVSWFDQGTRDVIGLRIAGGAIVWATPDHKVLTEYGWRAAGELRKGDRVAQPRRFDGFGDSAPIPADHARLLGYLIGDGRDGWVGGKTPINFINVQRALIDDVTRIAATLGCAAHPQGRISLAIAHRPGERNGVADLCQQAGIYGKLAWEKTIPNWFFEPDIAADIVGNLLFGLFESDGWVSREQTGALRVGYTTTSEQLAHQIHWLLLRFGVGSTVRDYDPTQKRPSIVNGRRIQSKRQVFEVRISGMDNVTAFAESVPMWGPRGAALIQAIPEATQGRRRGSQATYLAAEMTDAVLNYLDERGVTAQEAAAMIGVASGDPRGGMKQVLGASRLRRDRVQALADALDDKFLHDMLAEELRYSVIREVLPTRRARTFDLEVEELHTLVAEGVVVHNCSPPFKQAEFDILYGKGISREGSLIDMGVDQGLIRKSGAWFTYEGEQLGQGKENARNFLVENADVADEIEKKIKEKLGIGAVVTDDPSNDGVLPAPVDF
YopH PTP inh: blocks Yersinia enterocolitica YopH tyrosine phosphatase; 140,000 compounds, 0.16% hits; fluorescence Ex485/Em525; inhibition, %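 (about 10 µM by stock and volumes)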;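 active = inhibition of 50% or more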;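 note: controls were vehicle for no effect and minimum signal wells for full effect; inactives centre near -20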
Arbovirus anti repeat: recorded beside Arbovirus anti, whose call it bears; inhibition, %; measured here: 10K subset replicate screen; many hits read low in the repeat;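 first of two repeat runs on a subset; 0% = infected and 100% = uninfected wells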
Active calls of the source: *; ? = inconclusive; . = not tested or not shown. An excerpt; the hit share may differ from the screen's.

SMILES | Arbovirus anti | Mtb bLac sens | Mtb growth | RecA intein inh | YopH PTP inh | others
COc1ccc(S(=O)(=O)N2CCOC2CNC(=O)C(=O)NCCc2ccc(OC)c(OC)c2)cc1C (centres undefined) | 12 | 5 | -1% | -0.6 | -18
COc1cccc(OC)c1C(=O)N1CCN=C1SCc1cccnc1 | 0 | 2 | 2% | -1.7 | -34
Fc1ccc(/C=N/Nc2ncnc3nc[nH]c23)cc1F | 0 | -5 | . | -3.0 | 10
COc1cc(C[C@@H](C)N)c(OC)cc1I | . | 2 | -4% | -0.1 | .
Cc1nc2sc(-c3ccccc3)cc2c(=O)n1/N=C/N(C)C | 1 | -2 | -1% | 6.3 | .
O=C(OCc1nnc(-c2ccccc2)o1)c1ccc(CO)cc1 | 2 | 2 | -4% | 0.1 | .
CCOC(=O)c1cccc(Nc2nc(C)cc(C)n2)c1 | -1 | 5 | 14% | . | 13
C=CCSc1nc2sc(C)c(C)c2c(=O)n1N | -7 | -1 | 5% | -3.6 | -41
CC1CN(C(=O)C(c2ccccc2)c2ccccc2)CC(C)O1 (centres undefined) | 1 | 9 | -7% | 1.7 | -26
COc1ccc(-c2nc(CN3CCCCC3c3cccnc3)c(C)o2)c(F)c1 (centres undefined) | 1 | 14 | 1% | 2.4 | .
Cc1ccnc(NC(c2ccccn2)c2c(C)[nH]c3ccccc23)c1 (centres undefined) | -2 | -2 | 2% | 0.1 | .
COc1ccc(/C=N/NC(=O)c2ccccc2[N+](=O)[O-])cc1CN1CCc2cc(OC)c(OC)cc2C1C (centres undefined) | -3 | -6 | 5% | -1.4 | .
COc1cc2c(cc1NC(=O)COC(=O)[C@@H](NS(=O)(=O)c1ccccc1)C(C)C)oc1ccccc12 | -8 | 2 | 17% | 3.0 | -21
O=C(CNC(=O)OCc1ccccc1)Nc1ccc(Br)cc1C(=O)c1ccccc1Cl | -2 | 1 | 4% | -3.4 | -14
Fc1ccc(NC(=S)Nc2ccccc2OC(F)F)cc1Cl | -9 | 90 | ? | 4.7 | -15
CN(c1ccc(C(=O)NCc2ccccn2)cc1)S(=O)(=O)c1ccc(Cl)cc1 | . | -10 | . | -3.8 | .
CC1(C)CC(=O)C(C2C3=C(CC(C)(C)CC3=O)OC3=C2C(=O)CC(C)(C)C3)=C(O)C1 | . | 8 | . | -1.3 | .
COCCOC(=O)C1=C(C)Nc2ncnn2C1c1ccco1 (centres undefined) | . | -9 | -7% | 2.0 | .
COc1cccc2c(N/N=C/c3ccco3)cc(C)nc12 | -1 | 11 | 5% | . | .
COc1ccccc1CNC(=O)CSc1nnc2ccc(-c3cccnc3)nn12 | 3 | -12 | -5% | -3.8 | .
O=[N+]([O-])c1cccc(-c2csc(N/N=C/c3cccc(O)c3)n2)c1 | -36 | 29 | -12% | 19 | .
N#CCCN1CCN(S(=O)(=O)c2ccc(S(=O)(=O)NC3CC3)cc2)CC1 | 7 | 0 | -5% | -0.2 | -25 | Arbovirus anti repeat=2
Cc1onc(-c2ccccc2)c1C(=O)N1CCN(c2ccc([N+](=O)[O-])cc2)CC1 | . | -4 | . | 0.9 | .
O=C(c1cc([N+](=O)[O-])cc([N+](=O)[O-])c1)N1CCN(Cc2ccc3c(c2)OCO3)CC1 | -4 | 100 | 69% | -8.4 | .
Cc1cc(-c2csc(NC(=O)C3=COCCO3)n2)c(C)n1C | . | -5 | . | 2.4 | .
O=S(=O)(c1ccc2ccccc2c1)N1CCOCC1 | . | -11 | . | 0.6 | .
CCOCCCNC(=O)C(NC(=O)Cc1cccs1)c1ccc(C)cc1 (centres undefined) | 11 | 1 | 0% | -3.5 | .
Cc1cc(N2C(=O)C(O)=C(C(=O)c3ccco3)C2c2cccc(Cl)c2)no1 (centres undefined) | . | -1 | . | 3.9 | .
CCOc1ccc(-n2nc3c(=S)[nH]nc(C)c3c2C)cc1 | -2 | 1 | -1% | -2.0 | -36
COc1ccc(C(=O)O/N=C(/c2cccs2)C(C)(C)C)cc1 | . | 15 | 2% | 13 | .
CCCCOc1ccc(CN=C(N)N)cc1Cl | . | -5 | 7% | 0.6 | .
Cc1ccc(NC(=O)CCC(=O)NNC(=O)c2cccs2)c(C)c1 | 2 | . | 0% | 0.5 | -35
COc1ccc(C)cc1S(=O)(=O)N(C)CC(=O)NC1CC1 | -1 | -1 | -9% | . | -19
Cc1cc(C)nc(SCc2nc3ncccn3c2Br)n1 | -1 | -6 | 5% | 5.5 | 4
CCOc1ccc(NC(=O)c2c(N)n(C)c(=O)[nH]c2=O)cc1 | . | 1 | -8% | 0.8 | .
CC(O)c1nc(C(C)O)n(CC(=O)c2ccccc2)n1 (centres undefined) | . | -6 | . | -0.9 | .
CCOC(=O)c1[nH]c(C)c(C(=O)OCC(=O)NC(=O)NC(C)(C)C)c1C | -1 | -15 | 0% | 0.5 | -16
OC(CN1C2=NCCCN2c2ccccc21)c1ccc2c(c1)OCO2 (centres undefined) | 15 | -15 | -13% | -1.5 | -15
Cc1ccc(NS(=O)(=O)c2ccc3c(c2)NC(=O)C(C)C(=O)N3)cc1C (centres undefined) | . | 6 | . | 1.4 | .
O=C(CN1CCN(c2ccc(Cl)cc2)CC1)Nc1ccc(F)c(F)c1 | 17 | -4 | 2% | 3.6 | 3
CCNC(=O)CSc1nc2ccccc2c(=O)n1-c1cccc(OC)c1 | 2 | -3 | 1% | 0.3 | .
CC(C)(C)c1ccc(S(=O)(=O)NCC(=O)N2CCN(C(=O)c3ccco3)CC2)cc1 | 7 | 0 | 1% | 2.9 | -15
Cc1cc(C)n2nc(C(=O)Nc3cccc(S(=O)(=O)N(C)c4ccccc4)c3)nc2n1 | . | 0 | 0% | -0.5 | .
Cc1ccc(N(C(=O)C2COc3ccccc3O2)C(C(=O)NC2CCCCC2)c2cn(C)nc2C)cc1 (centres undefined) | -3 | 3 | 7% | -4.7 | -18
COc1ccc(CCNC(=O)c2c(O)c3cccc4c3n(c2=O)CC4)cc1 | 13 | -3 | -5% | 0.2 | -64
O=C(COc1ccccc1)NCC(=O)NC1=NCCS1 | -3 | -11 | -5% | 0.9 | -1
N#Cc1ccc(C(=O)Nc2cc(S(=O)(=O)N3CCCC3)ccc2OCC(F)(F)F)cc1 | 1 | 10 | 0% | -2.2 | -20
CCc1c(C)sc(NC(=O)C2CCCO2)c1C#N (centres undefined) | -1 | -2 | -7% | -3.6 | -42
CC(C)COc1ccc(C(=O)N/C(=C\c2cccc([N+](=O)[O-])c2)C(=O)OC(C)C)cc1 | 4 | -6 | -3% | 0.4 | -49
O=C(Nc1ccccc1[N+](=O)[O-])c1cc(S(=O)(=O)N2CCOCC2)cs1 | . | -11 | . | 2.5 | .
C=CCNCc1ccccc1[N+](=O)[O-] | . | -2 | . | -1.9 | .
CCNS(=O)(=O)c1ccc2c(c1)NCC2 | 0 | 9 | 0% | 2.6 | -16
O=C(Nc1ccccc1OC(=O)c1ccc(Cl)cc1)c1ccc(Cl)cc1 | 29 | 100 | 12µM* | 5.1 | -25
CCc1cc2c(=O)nc3n(c2s1)Cc1ccccc1/C3=C(/O)c1ccc(F)cc1 | -8 | . | . | -10 | -16
O=C(COc1cccnc1[N+](=O)[O-])NCc1ccccc1 | . | -3 | . | -3.1 | .
CCOC(=O)N1CCN(CC(O)COc2ccc(C)cc2C(C)(C)C)CC1 (centres undefined) | -21 | 9 | 4% | -0.1 | -15
COc1cc(OC)c(/C=N/N2CCN(c3ccccc3OC)CC2)c(OC)c1 | . | -5 | . | -2.6 | .
CC(Sc1cccc[n+]1[O-])c1ccccc1 (centres undefined) | . | 9 | . | -2.7 | .
CCOC(=O)c1sc(N(Cc2ccccc2)C(=O)CCl)nc1C | . | 0 | . | 88* | .
Cc1ccc(N(C)C(=O)N2CCN(S(=O)(=O)c3ccc(C)c(C)c3)CC2)cc1 | 5 | -1 | 1% | 4.9 | 6

Four entries already listed, sorted by count of non-hydrogen atoms, ascending:
SMILES | Arbovirus anti | Mtb bLac sens | Mtb growth | RecA intein inh | YopH PTP inh | others
O=C(Nc1ccccc1[N+](=O)[O-])c1cc(S(=O)(=O)N2CCOCC2)cs1 | . | -11 | . | 2.5 | .
CCOC(=O)N1CCN(CC(O)COc2ccc(C)cc2C(C)(C)C)CC1 (centres undefined) | -21 | 9 | 4% | -0.1 | -15
Cc1ccc(N(C)C(=O)N2CCN(S(=O)(=O)c3ccc(C)c(C)c3)CC2)cc1 | 5 | -1 | 1% | 4.9 | 6
CC(C)(C)c1ccc(S(=O)(=O)NCC(=O)N2CCN(C(=O)c3ccco3)CC2)cc1 | 7 | 0 | 1% | 2.9 | -15

Grouped by structure, the entries above containing bromine.
SMILES | Arbovirus anti | Mtb bLac sens | Mtb growth | RecA intein inh | YopH PTP inh | others
O=C(CNC(=O)OCc1ccccc1)Nc1ccc(Br)cc1C(=O)c1ccccc1Cl | -2 | 1 | 4% | -3.4 | -14
Cc1cc(C)nc(SCc2nc3ncccn3c2Br)n1 | -1 | -6 | 5% | 5.5 | 4

Following part:
SMILES | Arbovirus anti | Mtb bLac sens | Mtb growth | RecA intein inh | YopH PTP inh | others
CCCCNC(=S)Nc1ccc(Cl)cc1 | 23 | -4 | 9% | 0.6 | -17
Cc1ccc(Cl)c(NC(=O)CN2CCNC(=O)C2)c1Cl | 1 | -11 | 6% | 2.3 | .
CC1(C)Cc2ccccc2C(N/N=C/c2ccc(Cl)cc2)=N1 | -2 | 2 | -8% | 1.4 | -15
Cc1cc(NC(=O)CCCn2cc([N+](=O)[O-])cn2)n(Cc2ccc(F)cc2)n1 | 3 | 52 | 3% | -3.6 | .
Cc1c(C(=O)Oc2cccc3cccnc23)oc2ccccc12 | 3 | 100 | 3µM* | -5.8 | .
CSc1nc(Sc2cccc(Cl)c2)c2ccccc2n1 | -7 | 11 | 2% | 0.2 | 0
CN(C(=O)CSc1nnc(-c2ccc(F)cc2)c2ccccc12)C1CCS(=O)(=O)C1 (centres undefined) | 7 | -1 | 9% | 7.3 | .
COc1cccc(S(=O)(=O)c2nc(C)c3c(n2)CCC3)c1 | 2 | 3 | 0% | -3.9 | .
O=C(NNC(=O)[C@@H]1CCCC[C@@H]1C(=O)O)Nc1ccccc1 | -7 | -4 | 2% | -2.5 | -12
COc1ccc(NC(=O)c2nnn(CC(=O)Nc3ccc4c(c3)OCO4)c2N)c(OC)c1 | . | 1 | . | -0.7 | .
Cc1cc(C)n(-c2nnc(C)n2/N=C/c2cc(Br)ccc2OCc2ccccc2)n1 | 14 | 20 | 11% | 5.9 | -9 | Arbovirus anti repeat=-1
CC(=O)C1=NN(c2ccccc2)C(c2cccs2)N1c1ccc(N(C)C)cc1 (centres undefined) | -1 | -14 | 0% | . | -76
CCC(C(=O)NC1CCCC1)n1c(SCc2cccc(C)c2)nc2ccncc21 (centres undefined) | 0 | -1 | -2% | 0.1 | -25
CCN(C(=O)/C=C/c1ccc2c(c1)OCO2)c1ccccc1 | -5 | 6 | 7% | -1.0 | -16
O=C(Nc1cnc2sc3c(n2c1=O)CCCC3)c1ccc(F)cc1 | -7 | 0 | 2% | -0.4 | -5
COc1ccc(NS(=O)(=O)c2cccc(C(=O)N3CCN(Cc4ccc5c(c4)OCO5)CC3)c2)cc1 | . | -4 | . | 1.8 | .
CCN(c1ccccc1)S(=O)(=O)c1csc(C(N)=O)c1 | . | 1 | . | -1.5 | .
O=C(CSc1nnc(CNc2ccccc2)o1)N1CCN(C(=O)c2ccco2)CC1 | 6 | 3 | -6% | -1.8 | 4
Cn1c(N)c(-c2ccccc2)c2ccc([N+](=O)[O-])cc2c1=O | . | -2 | . | -0.8 | .
COc1ccc(CN(C)Cc2nc(Cc3cccc(F)c3)no2)c2cccnc12 | 15 | 51 | -3% | -0.5 | .
O=C(CCn1c(=O)oc2ccccc21)Nc1cccc(Br)c1 | . | 3 | . | 0.0 | .
COc1ccc(S(=O)(=O)N(Cc2nc3ccccc3c(=O)[nH]2)C2CCCC2)cc1 | -2 | -18 | -8% | -0.2 | -51
CC(C)Sc1oc(-c2ccco2)nc1S(=O)(=O)c1ccccc1 | 10 | 8 | -9% | 5.8 | -11
CCOc1cc(/C=N/Nc2ccc(C(=O)O)cc2)ccc1OC(=O)c1ccccc1C | . | 16 | 0% | -2.5 | .
COC(=O)C1=C(C)NC(=O)CC1c1cc(Br)ccc1F (centres undefined) | 1 | 4 | 1% | -0.9 | -25
Cc1ccc(Cl)cc1NC(=O)c1cc(S(=O)(=O)N2CCOCC2)cn1C | . | 7 | . | -1.4 | .
CC(=O)Nc1ccc(S(=O)(=O)N2CCN(CC3CC4C=CC3C4)CC2)cc1 (centres undefined) | -3 | -2 | 2% | 4.2 | .
COc1cc(O)c(C(CCN2CCCCC2)c2ccc(N(C)C)cc2)c(OC)c1 (centres undefined) | . | 0 | -5% | -3.2 | .
